Screens as filed in PubChem BioAssay.
GIRK2 act: activators of human GIRK2 potassium channels; G protein-activated inward rectifier potassium channel 2 (Homo sapiens), P48051; HEK293-GIRK2 thallium flux, Thallos fluorescence; calls only for hits at 25 µM; actives 0.05% (n = 63,000); AID 1259325, 2017;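 active = among the strongest 0.2% of first-round signals and kept after retests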;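 also: first round at about 10 µM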
Target sequence (P48051 whole entry, looked up): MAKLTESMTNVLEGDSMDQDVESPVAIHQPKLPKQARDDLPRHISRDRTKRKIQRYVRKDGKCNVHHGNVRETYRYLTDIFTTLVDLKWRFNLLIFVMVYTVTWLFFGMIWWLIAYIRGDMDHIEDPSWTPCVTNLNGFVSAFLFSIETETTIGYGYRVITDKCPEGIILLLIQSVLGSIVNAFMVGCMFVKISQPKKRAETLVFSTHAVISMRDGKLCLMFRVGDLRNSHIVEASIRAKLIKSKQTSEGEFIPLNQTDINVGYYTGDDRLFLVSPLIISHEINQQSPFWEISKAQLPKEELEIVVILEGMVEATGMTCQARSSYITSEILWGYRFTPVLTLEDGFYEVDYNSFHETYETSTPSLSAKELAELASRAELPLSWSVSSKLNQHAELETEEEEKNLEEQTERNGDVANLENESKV
Calls only; i = inactive.

No.	compound	GIRK2 act
1	Nc1ccc(C(=O)NNC(=S)Nc2ccccc2)cc1	i
2	COc1ccc(C(=O)Nc2nc3nc(C)cc(C)c3s2)cc1OC	i
3	CCOc1ccc(N(C)S(=O)(=O)c2ccsc2C(=O)NCc2ccccc2OC)cc1	i
4	O=C(/C=C/c1ccc2c(c1)OCO2)NCCC1CCCCN1S(=O)(=O)c1cccs1 (centres undefined)	i
5	O=C(Cn1cncc(-c2nc(-c3cccs3)cs2)c1=O)Nc1cccc(Cl)c1	i
6	CCc1ccc(S(=O)(=O)N2CCN(c3cccc(Cl)c3)CC2)cc1	i
7	CCCCNC(=O)c1ccc(-n2ccnc2SCC(=O)NCc2ccc(SC)cc2)cc1	i
8	O=C1COc2cc(Cl)ccc2N1Cc1nc(-c2cccnc2)no1	i
9	Cn1cc(OCc2ccccc2)c(=O)cc1C(=O)N1CCN(c2ccccc2F)CC1	i
10	O=C(Cn1ccn2nc(-c3ccc(Cl)cc3)cc2c1=O)Nc1cccc(Br)c1	i
11	NC(=O)c1nnn(-c2ccc(NC(=O)/C=C/c3ccccc3)cc2)n1	i
12	CCOC(=O)C1CCc2sc(NC(=O)C3COCC(=O)N3Cc3ccccc3)nc21 (centres undefined)	i

(next part)
No.	compound	GIRK2 act
13	CN(C)S(=O)(=O)c1ccc(C(=O)Nc2nc(-c3cc4ccccc4o3)cs2)cc1	i
14	O=C(Nc1nc2c(s1)CN(C(=O)/C=C/c1cccs1)CC2)NC1CCCC1	i
15	O=C(Nc1cc(F)ccc1F)c1csc2nc(-c3ccc(F)cc3)cn12	i
16	O=C(N1CCN(Cc2nnnn2-c2ccc(F)cc2)CC1)C12CC3CC(CC(C3)C1)C2	i
17	CCCCCCCCCC(=O)CC(=O)N[C@H]1CCOC1=O	i
18	O=C(c1ccco1)N1CCN(c2nc(N3CCOCC3)c3n[nH]nc3n2)CC1	i
19	O=c1ccc(S(=O)(=O)N2CCCCC2)cn1Cc1ccccc1	i
20	O=C(Cn1cnnn1)Nc1cc(OCc2ccc3c(c2)OCO3)ncn1	i
21	COc1cccc(N2CC(C)Cn3c2nc2c3c(=O)n(Cc3ccccc3F)c(=O)n2C)c1 (centres undefined)	i
22	COc1ccc(CNC(=O)c2cnc(OC)nc2)cc1	i
23	COc1cccc2cc(C(=O)N3c4ccccc4CC3C)c(=O)oc12 (centres undefined)	i
24	COc1ccc(S(=O)(=O)NCCCn2ncccc2=O)cc1F	i

Following part:
No.	compound	GIRK2 act
25	O=C(Cn1cccc(S(=O)(=O)N2CCCCCC2)c1=O)NC1CCCC1	i
26	Cc1cn2c3c(=O)[nH]c(=O)n(C)c3nc2n1CCCO	i
27	Cc1cc(NC(=O)Cn2nc3c4c(cccc4c2=O)-c2ccccc2-3)no1	i
28	N#Cc1ccc(OC2CCN(S(=O)(=O)c3ccc(OC(F)(F)F)cc3)CC2)nc1	i
29	COc1ccc(C(=O)N2CCc3cc(S(=O)(=O)N4CCOCC4)ccc32)cc1	i
30	Cc1ccc2c(=O)c(C(=O)N3CCCCC3)cn(CC(N)=O)c2n1	i
31	O=C(CC(c1ccccc1)c1ccccc1)Nc1cnoc1	i
32	O=C(Nc1cc(N2CCN(c3ccccc3)CC2)ncn1)c1ccccc1Cl	i
33	Cc1ccc(OCC(=O)Nc2nccs2)c(C(C)(C)C)c1	i
34	CCOc1ccc(CNC(=O)C2CCN(c3ncccc3-c3nc(-c4ccc(C)cc4)no3)CC2)cc1	i
35	Cc1cc([N+](=O)[O-])ccc1NC(=O)C1COc2ccccc2O1 (centres undefined)	i
36	CCOc1ccccc1C(=O)N1CC(c2nc(-c3ccccc3)no2)C1	i

Molecules above with a thiophene ring, fused or not, in the order listed:
No.	compound	GIRK2 act
3	CCOc1ccc(N(C)S(=O)(=O)c2ccsc2C(=O)NCc2ccccc2OC)cc1	i
4	O=C(/C=C/c1ccc2c(c1)OCO2)NCCC1CCCCN1S(=O)(=O)c1cccs1 (centres undefined)	i
5	O=C(Cn1cncc(-c2nc(-c3cccs3)cs2)c1=O)Nc1cccc(Cl)c1	i
14	O=C(Nc1nc2c(s1)CN(C(=O)/C=C/c1cccs1)CC2)NC1CCCC1	i

(further entries)
No.	compound	GIRK2 act
37	CCOc1ccc(NC(=O)C(C)Cn2nc(C)cc2C)cc1 (centres undefined)	i
38	O=C(c1ccoc1)N1CCC(CNS(=O)(=O)c2ccc(N3CCCCS3(=O)=O)cc2)CC1	i
39	COc1ccc(NC(=O)NCc2ccsc2)cc1	i
40	O=C(NCC#CCN1CCOCC1)c1cc(C2CC2)on1	i
41	COc1cc(/C=C/C(=O)N2CC(c3nc(-c4cccs4)no3)C2)cc(OC)c1OC	i
42	CC#CCC(C)C(O)/C=C/[C@H]1C(O)CC2C/C(=C\CCCC(=O)O)CC21 (some centres undefined)	i
43	Cc1oc(-c2cccc(Cl)c2)nc1Cn1c(=O)n(CC2CCCO2)c(=O)c2ccccc21 (centres undefined)	i
44	Cc1ccc(-n2nnc3c(N4CCN(C(=O)Cc5cccc6ccccc56)CC4)ncnc32)cc1	i
45	Cc1ccc(Cl)cc1NC(=O)C(=O)NCc1ccc2c(c1)OCO2	i
46	CCOc1ccccc1NC(=O)COc1coc(CSc2nncn2C)cc1=O	i
47	COc1ccc(Cl)cc1-n1nnc(-c2nc(-c3ccc4c(c3)OCO4)cs2)c1N	i
48	O=C(CSc1nnc2ccccn12)Nc1ccc(-c2nc3ccccc3s2)cc1	i

The list goes on:
No.	compound	GIRK2 act
49	Cc1cc(CCNC(=O)CCn2cnc3ccccc3c2=O)on1	i
50	CCOc1ccccc1NC(=O)N1CCN(c2ccc(-n3cccc3)nn2)CC1	i
51	COc1ccc(C)cc1Nc1nc(C)cc(N)n1	i
52	CN(C)CC#CCNC(=O)NCc1cccc2ccccc12	i
53	Cc1ccccc1OCc1ccc(-c2nc(C#N)c(N3CCC(C(N)=O)CC3)o2)o1	i
54	COc1ccc(OC)c(-c2cc(C(=O)N3CCC(Oc4ccc(Cl)cn4)CC3)[nH]n2)c1	i
55	CCc1ccc(NC(=O)Cn2ncc3c(c2=O)N(C)C(=O)CS3)cc1	i
56	COc1nn(C)cc1C(=O)N1CCOCC1CN(C)CCO (centres undefined)	i
57	O=S(=O)(c1ccc2nncn2c1)N(Cc1ccccc1F)c1ccc(F)c(F)c1	i
58	N#C/C(=C\c1cccc([N+](=O)[O-])c1)c1nc2ccccc2o1	i
59	CC(C)n1c(=O)c2ccccc2n(Cc2nc(-c3ccc(Br)cc3)no2)c1=O	i
60	Cc1noc(C)c1CCC(=O)N1CC(c2nc3ccccc3[nH]2)C1	i

Additional records follow.
No.	compound	GIRK2 act
61	Cc1ccc(N2C(=O)C3N=NN(Cc4nc(-c5ccc(Br)cc5)no4)C3C2=O)cc1F (centres undefined)	i
62	CCc1ccc(NC(=O)Cn2cnc3c(-c4ccc(OC)cc4)csc3c2=O)cc1	i
63	CCOC(=O)Cc1nc(-c2cnccn2)n[nH]1	i
64	O=C(c1cc(=O)c2ccccc2o1)N1CCC(Oc2cccnc2)CC1	i
65	Cn1c(=O)c(C(=O)Nc2cccc(F)c2)cc2cccnc21	i
66	CCOCCn1c(=O)c2c(nc3n(-c4cc(C)cc(C)c4)c(C)cn23)n(C)c1=O	i
67	O=C(CSc1nccn1-c1cccc(C(=O)Nc2ccccc2)c1)NCc1ccc(F)cc1	i
68	O=C(NC1CC1)c1nnn(-c2ccc(NC(=O)c3ccccc3Br)cc2)n1	i
69	CCCCN1C(SCC(=O)Nc2ccc(C)cc2Cl)=NS(=O)(=O)c2ccccc21	i
70	COCCn1c(SCc2nc(-c3cc(OC)cc(OC)c3)no2)nc2ccsc2c1=O	i
71	Cc1nn(C2CCS(=O)(=O)C2)c(C)c1N1CCN(CC(=O)NCc2ccccc2)CC1 (centres undefined)	i
72	COc1ccccc1N1CCN(C(=O)C2CCN(c3ncnc4c3sc3ncccc34)CC2)CC1	i

The list continues.
No.	compound	GIRK2 act
73	O=C(Nc1ccc2c(c1)OCCO2)C1CN(C(=O)c2cnccn2)C1	i
74	CC1Oc2ccccc2OC1C(=O)NCC#CCOc1ccccc1C(N)=O (centres undefined)	i
75	COc1cc2nc(SCC#N)n3nc(CCn4c(C)nc5ccccc54)nc3c2cc1OC	i
76	CCOc1ccc2nc(NC(=O)Cn3nc(-c4ccco4)ccc3=O)sc2c1	i
77	O=C(c1ccc(-c2ccccc2)cc1)N1CCC(Oc2ccc(Cl)cn2)CC1	i
78	O=C(CSc1n[nH]c(=O)c2cc(-c3cccs3)nn12)N1CCN(c2ccccc2)CC1	i
79	Cc1cccc(NC(=O)Cn2nc3n(C(C)C)c(=O)c4ccc(C(=O)NC(C)C)cc4n3c2=O)c1	i
80	CN(C)C(CNS(=O)(=O)Cc1ccccc1Cl)c1cn(C)c2ccccc12 (centres undefined)	i
81	COc1ccc(OC)c(-n2c(C)c(C)n3c4c(=O)n(CC(N)=O)c(=O)n(C)c4nc23)c1	i
82	O=C(CCSc1nnnn1-c1ccccc1)Nc1cccc(-c2nc3ccccc3s2)c1	i
83	CC(=O)COc1ccc2c(c1)O/C(=C\c1cc(Cl)cc3c1OCOC3)C2=O	i
84	CCOc1ccc(C(=O)Nc2ccccc2C(N)=O)nn1	i

Other results.
No.	compound	GIRK2 act
85	O=C(Nc1nc(-c2ccncc2)cs1)C1CCN(S(=O)(=O)c2cccs2)CC1	i
86	CCC(=O)N(CC1CCCO1)c1nc2cc(OC)ccc2s1 (centres undefined)	i
87	O=C(Nc1nccs1)c1ccc(N2C(=O)c3ccccc3C2=O)cc1	i
88	COCCN(Cc1ccoc1)S(=O)(=O)c1ccccc1Cl	i
89	CCCCN1C(=O)c2cccc3c(NC(=O)CCCS(=O)(=O)Cc4ccccc4)ccc1c23	i
90	CCc1ccc(-n2c(C)c(C)n3c4c(=O)n(CC(=O)OC)c(=O)n(C)c4nc23)cc1	i
91	COc1cc(/C=C2\SC(=S)N(c3ccccc3)C2=O)ccc1OCC(=O)N1CCOCC1	i
92	O=C(c1cccc(Cl)c1)N1CCC(Oc2ccccn2)CC1	i
93	CN(C)S(=O)(=O)c1ccc(C(=O)N2CCN(Cc3nc(C4CC4)cs3)CC2)cc1	i
94	O=S(=O)(NCCS(=O)(=O)N1CCc2ccccc21)c1cccnc1	i
95	CC(=O)c1cccc(NC(=O)CCn2nc(C)c(Br)c2C)c1	i
96	CCCCC[C@H](O)CC[C@H]1[C@H](O)CC(=O)[C@@H]1CCCCCCC(=O)O	i

Arranged by count of non-hydrogen atoms (rising): 3 of the compounds above.
No.	compound	GIRK2 act
95	CC(=O)c1cccc(NC(=O)CCn2nc(C)c(Br)c2C)c1	i
85	O=C(Nc1nc(-c2ccncc2)cs1)C1CCN(S(=O)(=O)c2cccs2)CC1	i
91	COc1cc(/C=C2\SC(=S)N(c3ccccc3)C2=O)ccc1OCC(=O)N1CCOCC1	i

Retrieved one by one from above:
No.	compound	GIRK2 act
94	O=S(=O)(NCCS(=O)(=O)N1CCc2ccccc21)c1cccnc1	i
92	O=C(c1cccc(Cl)c1)N1CCC(Oc2ccccn2)CC1	i

(cont.)
No.	compound	GIRK2 act
97	Cn1c(C(F)(F)F)nn(CCNS(=O)(=O)c2ccc(Cl)cc2)c1=O	i
98	Cc1ccc(Cn2nc(-c3ccco3)c3sc(N4CCCC4)nc3c2=O)cc1	i
99	Cc1cccc(NC(=O)Cn2nc3ccc(-c4ccc(C)c(C)c4)nn3c2=O)c1	i
100	COCCCn1c(C(=O)NCCO)cc2c(=O)n3ccccc3nc21	i
101	COc1cccc2cc(-c3nnc(NC(=O)/C=C/c4ccccc4)o3)oc12	i
102	O=C(NCCN1CCN(C(=O)c2ccc(Cn3ccnc3)cc2)CC1)c1ccc2c(c1)OCO2	i
103	O=C(NCc1cccs1)Nc1nnc(-c2ccc3c(c2)OCO3)o1	i
104	O=C(Nc1onc2c1CCCC2)c1cnn2c1OCCC2	i
105	O=C(NCC(=O)N1CCCC(c2nnc(C(F)(F)F)o2)C1)c1ccccc1 (centres undefined)	i
106	CCCOC(=O)CC1C(=O)NCCN1C(=S)NC(=O)c1ccco1 (centres undefined)	i
107	CC(=O)Nc1ccc(S(=O)(=O)N(Cc2ccoc2)Cc2cccs2)cc1	i
108	COc1cccc(C(=O)Nc2ccc(-n3nnc(C(=O)NC4CCCC4)n3)cc2)c1OC	i

Following part.
No.	compound	GIRK2 act
109	COc1cccc(Sc2ccc(N3CCC(C(=O)NCCC4=CCCCC4)CC3)nn2)c1	i
110	COCCNC(=O)Nc1ccccc1NC(=O)c1ccccc1C(F)(F)F	i
111	CC1(C)OCC2(CO1)CN(S(=O)(=O)c1ccc(F)c(Cl)c1)C2	i
112	CCCc1oc(CCC(=O)O)c(C(=O)O)c1C	i
113	COc1ccc(NC(=O)Cn2cccc(-c3nc(-c4ccccc4)no3)c2=O)cc1	i
114	O=C(CCCS(=O)(=O)Cc1ccccc1)Nc1nnc(-c2ccc3c(c2)OCCO3)o1	i
115	O=C(/C=C/c1ccco1)Nc1cc(N2CCOCC2)ncn1	i
116	O=C(CSc1nncc2ccccc12)NCc1ccco1	i
117	O=C(NCCCn1ccnc1-c1ccccc1)NCc1cccs1	i
118	O=C(Cn1cnc2c(c1=O)CCCC2)Nc1cc(C(F)(F)F)ccc1Cl	i
119	CCCc1nnsc1C(=O)NCC(O)c1ccoc1 (centres undefined)	i
120	O=C(Nc1ccc(N2CCCS2(=O)=O)cc1)c1ccsc1	i

The list goes on.
No.	compound	GIRK2 act
121	CSc1ccccc1C(=O)N(Cc1ccoc1)Cc1cccs1	i
122	COc1cc(NC(=O)COc2ccccc2)ccc1N1CCCCC1=O	i
123	COc1ccc2ccc(=O)oc2c1C(OC(C)=O)C(=O)C(C)C (centres undefined)	i
124	COc1ccc(CC(C)(O)CNC(=O)NCc2ccc(F)cc2)cc1 (centres undefined)	i
125	O=C(NC1CCCCC1)C1CCN(c2ncccc2S(=O)(=O)N2CCOCC2)CC1	i
126	O=C(NCCC(O)c1cccc2ccccc12)C(=O)Nc1cc2c3c(c1)CC(=O)N3CCC2 (centres undefined)	i
127	Cn1ccnc1SCC1CCN(C(=O)Nc2ccccc2F)CC1	i
128	O=C(c1cccc(Cl)c1)N1CCC(Cn2ccnc2-c2ccccc2)CC1	i
129	CCn1c(C)cc(O)c(C(c2ccc(OC)cc2)c2c(O)cc(C)n(CC)c2=O)c1=O	i
130	CC(C)CCN1C(=O)CCc2cc(NC(=O)NCc3cccs3)ccc21	i
131	CNC(=O)Cn1nnn(-c2ccc(NS(=O)(=O)c3ccc(C(=O)OC)cc3)cc2)c1=O	i
132	COc1cccc(C(=O)Nc2ccc(S(=O)(=O)Nc3onc(C)c3C)cc2)c1	i

Only part of the results is shown; the hit share may differ from the screen's.
